ALR inh: blocks human ALR sulfhydryl oxidase activity | purified ALR, DTT oxidation, H2O2 HRP-luminol luminescence | 290,000 compounds, 3.8% hits | AID 485317 | P55789 | inhibition, % (concentration not given with the values);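 active means mean and each replicate at 75% or more; inconclusive means only one of the two met; inactive means neither met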;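 further: stock transfer was 7.5 nL into about 7.5 µL; 0% = neutral wells and 100% = wells with inactivated enzyme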
Target sequence (P55789 whole entry, looked up): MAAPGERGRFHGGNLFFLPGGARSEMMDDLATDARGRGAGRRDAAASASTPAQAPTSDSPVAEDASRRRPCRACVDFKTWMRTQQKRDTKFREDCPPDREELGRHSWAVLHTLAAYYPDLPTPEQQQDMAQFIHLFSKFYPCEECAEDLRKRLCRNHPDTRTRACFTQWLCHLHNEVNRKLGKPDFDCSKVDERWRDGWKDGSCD
UCH37 DUB inh: inhibitors of human deubiquitinating enzyme UCH37; purified proteasome/UCH37, Ub-AMC cleavage fluorescence; inhibition, % (no concentration beside the values); Q9Y5K5; 330,000 compounds, 0.33% hits;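 active means mean of two replicates above 20%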;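 further: 0% = compound-free wells with enzyme and 100% = wells lacking proteasome; stock transfer was 100 nL into about 20 µL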
Target sequence (Q9Y5K5 whole entry, looked up): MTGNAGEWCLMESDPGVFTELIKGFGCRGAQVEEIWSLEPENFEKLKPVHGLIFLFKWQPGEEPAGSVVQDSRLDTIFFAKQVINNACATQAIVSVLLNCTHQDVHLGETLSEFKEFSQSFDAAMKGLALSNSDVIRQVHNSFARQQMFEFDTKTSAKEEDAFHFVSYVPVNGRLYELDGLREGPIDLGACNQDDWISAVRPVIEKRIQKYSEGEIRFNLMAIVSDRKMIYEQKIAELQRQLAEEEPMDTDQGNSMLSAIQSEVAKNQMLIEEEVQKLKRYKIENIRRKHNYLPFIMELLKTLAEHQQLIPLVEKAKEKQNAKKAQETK
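Reagent: Ub-AMC substrate; assay system: Proteasome-associated human UCH37 deubiquitinase; controls: no-proteasome and no-compound wells; read-out: % inhibition of Ub-AMC cleavage fluorescence; timing: 30 min preincubation with enzyme, 25 min cleavage at room temperature; signal: AMC fluorescence from Ub-AMC cleavage, excitation 355 nm, emission 460 nm; buffer or medium: Tris-HCl pH 7.4 plus ovalbumin, ATP-MgCl2, DTT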
FGF22 binding: binders of recombinant human FGF22 by thermal shift; calls only at 9.99 µM; 340,000 compounds, 1.5% hits; Q9HCT0; SYPRO orange fluorescence; percent of sucrose octasulfate shift, DMSO zero;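 active means melting point raised past a set limit in the mean and every replicate; inconclusive means no clear call; three in four hits are not shown here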
rRNA inh HTS: selective bacterial rRNA inhibition in E. coli; 350,000 compounds, 1.6% hits; E. coli WT GFP vs humanized-ribosome RFP mutants, fluorescence, 24 h; active compounds read low; DMSO median 0, no signal -100; GFP signal change (wild-type ribosome), % (test concentration not listed); AID 720706;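 active means significant combined selectivity score with lowered wild-type GFP, culture density cut under 30%, mutant RFP and density less affected; inactive means any of these conditions unmet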; further: one replicate is shown; some compounds called inactive have numbers as strong as hits
HNF4A DNA FP: change in binding of human HNF4 alpha to DNA. P41235. HNF4a-FITC DNA binding, fluorescence polarization, 1 h. activity change, % at 10 µM. 360,000 compounds, 0.3% hits. AID 1224865; in the data active means activity change above about 30%, passing the limit was not always enough;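 further: controls were the assay level and a saturating level of protein; the project sought stronger binding though the title names inhibitors; some compounds called inactive have numbers as strong as hits; positive values seem to mean higher polarization but the record does not say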
Target sequence (P41235 whole entry, looked up): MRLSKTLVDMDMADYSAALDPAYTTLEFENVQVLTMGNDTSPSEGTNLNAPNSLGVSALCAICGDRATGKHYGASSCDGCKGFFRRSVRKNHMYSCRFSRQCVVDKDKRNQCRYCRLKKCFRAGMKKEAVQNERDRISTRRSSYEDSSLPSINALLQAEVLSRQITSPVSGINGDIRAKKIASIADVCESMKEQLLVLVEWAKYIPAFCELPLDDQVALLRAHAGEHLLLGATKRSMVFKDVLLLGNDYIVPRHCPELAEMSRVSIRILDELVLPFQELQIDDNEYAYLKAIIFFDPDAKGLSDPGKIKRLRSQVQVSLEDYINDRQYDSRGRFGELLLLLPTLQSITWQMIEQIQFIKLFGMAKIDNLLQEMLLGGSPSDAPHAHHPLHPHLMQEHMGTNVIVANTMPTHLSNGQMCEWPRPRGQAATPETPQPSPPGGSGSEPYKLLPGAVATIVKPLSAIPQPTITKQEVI
B2AR ag: activates human beta-2 adrenergic receptor causing internalization; P07550; Am2.2-beta2AR cells, FAP receptor internalization, flow cytometry; reference of the scale not given here; response, % (no concentration beside the values); 340,000 compounds, 0.43% hits;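 active means response above a set limit, near 3 SD of response in nonfluorescent compounds, cut at about 42% in these data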;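 further: stock transfer was 100 nL into about 11 µL; a reference agonist was the positive control; negative values mostly stem from fluorescent compounds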
Ecoli growth: E. coli growth inhibition | 330,000 compounds, 0.21% hits | Escherichia coli growth, OD600, 23 h; active compounds read low | OD600 absorbance (test concentration not listed);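 active means OD600 absorbance below the run mean of sample wells minus 3.6 SD, in any replicate, cut at about 0.56 in these data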;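 further: stock transfer was 300 nL into about 60 µL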
rRNA inh HTS OD600: second read-out of rRNA inh HTS, no call of its own (marks repeat the call); OD600 change, %; measured here: OD600 growth;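 optical density of the mix in the first replicate; 0 = DMSO median and -100 = no signal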
rRNA inh HTS RFP: also measured in rRNA inh HTS; calls as there; RFP signal change, %; measured here: RFP humanized mutant strains;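 first replicate; 0 = DMSO median and -100 = no signal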
An asterisk follows results filed as active; i = inactive; ? = inconclusive; · = no result given; & = joins results of further samples. A portion of the library; count on the stated rates, not on these rows.

SMILES	ALR inh	UCH37 DUB inh	FGF22 binding	rRNA inh HTS	rRNA inh HTS OD600	rRNA inh HTS RFP	HNF4A DNA FP	B2AR ag	Ecoli growth
Cn1c(SC2=CS(=O)(=O)c3ccccc32)nc2ccccc21	-1	12	·	·	·	·	-0.4	74*	0.78
COc1ccc2c(c1)OC[C@H]1[C@H]2N2C(=O)c3ccc(F)cc3NC(=O)[C@@]2(C)[C@H]1c1ccccc1	·	-0.3	i	-5	-5	-0.2	-0.2	1	·
CC[N+](C)(CC)CCC/C(=N/O)C(O)(c1ccccc1)c1ccccc1	-10	·	i	8	6	-1.1	-1.6	-6	·
Cc1ccc(NC(=O)CS(=O)CC(=O)N(c2ccc(C)cc2)C(C)C(=O)NC2CCCCC2)cc1 (stereo not drawn)	56	1.7	·	·	·	·	2.5	-2	0.64
Cc1ccc(-c2ccc(SCC(=O)NC3CCCCC3)nn2)cc1	0	2.5	i	5	5	0.2	2.4	-19	0.66
CC(C)(C)N1C(=O)[C@H]2[C@@H](c3ccc(Br)cc3)N3C(=O)N(c4cccc(F)c4)C(=O)[C@@]3(C)[C@H]2C1=O	-3	3.0	i	-10	-7	1.7	-1.5	-7	·
CNc1cc(-c2cccc(N(C)C)c2)ncn1	·	·	i	-1	8	-0.4	-1.6	·	·
Oc1[nH]c2ccccc2c1N=Nc1c(F)c(F)c(Cl)c(F)c1F	-4	4.1	i	-2	2	-0.1	13	-3	0.71
CCC(C)Nc1nc2c(C)cccn2c(=O)c1C=Nc1ccc(OC)cc1 (stereo not drawn)	·	7.6	i	-41	-58	-5.0	-0.5	-7	0.67
Cc1nc2ccccn2c1C(=O)N/N=C/c1ccccc1[N+](=O)[O-]	-15	·	i	9	8	-1.3	-0.4	2	·
O=C(c1cccs1)N1CCc2c([nH]c3ccccc23)C1c1ccccn1 (stereo not drawn)	17	4.5	i	-22	-25	-4.3	2.1	-3	0.7
CCN(CC)S(=O)(=O)c1cc(NC(=O)NCCCl)ccc1C	-4	4.4	i	3	5	-0.9	4.4	1	0.7
Nc1cc2c3ccccc3ccc2c2ccccc12	·	-192	i	-15	-17	-4.5	14	0	0.71
Cc1nc2ccc(NC(=S)NC(C)C)cc2nc1C	26	-2.4	·	·	·	·	-2.7	-5	0.65
O=C(CCN1CCOCC1)NNC(=O)Nc1cccc([N+](=O)[O-])c1	0	8.0	i	16	13	3.9	3.2	6	0.67
O=C(NCc1ccco1)c1ccc(CS(=O)(=O)Cc2ccc(Cl)cc2)o1	-1	-0.6	i	-2	0	-7.5	1.2	-4	0.72
CC(=O)CSc1nnc2c3ccccc3nc(C(C)(C)C)n12	26	0.2	i	-2	6	7.5	-0.4	1	0.69
CCOC(=O)c1ccc(N2CCCCC2)c(NS(=O)(=O)c2cccc(C(F)(F)F)c2)c1	-1	6.2	i	2	10	0.8	-1.9	4	0.65
O=C(COC(=O)c1cccc(Br)c1)Nc1cccc2c1C(=O)c1ccccc1C2=O	-3	2.6	·	·	·	·	5.8	7	0.65
CC(CCCC(C)(C)O)NCCO (stereo not drawn)	2	4.0	·	·	·	·	4.1	-2	0.7
O=C(NC(=S)Nc1ccc2[nH]c(=O)[nH]c2c1)c1ccccc1F	-18	2.8	i	2	7	-1.2	0.4	-1	0.7
Cc1ccc(CCNC(=O)c2cc(S(=O)(=O)N3CCOCC3)cn2C)cc1	-24	4.9	i	-1	4	6.6	-0.1	-3	0.71
O=C(O)CCn1c(O)c(C=C2N=c3ccccc3=N2)sc1=S	2	7.8	i	13	14	9.2	6.5	0	0.64
CC(C)CC(=O)N1CCC(N2CCN(c3ccccc3)CC2)CC1	44	1.7	·	·	·	·	-3.8	-8	0.75
CCN(CC(=O)Nc1ccc(NC(C)=O)cc1)C(=O)CCN1C(=O)c2cccc([N+](=O)[O-])c2C1=O	-17	0.7	i	14	10	3.5	-1.4	-11	0.7
C=CCNC(=S)Nc1sc2c(c1C#N)CCCC2	58	3.3	i	10	0	3.0	0.9	-6	0.7
CCCCc1ccc(NC(=O)CSc2nc3ncccc3[nH]2)cc1	-10	4.1	i	-26*	-20*	-2.0*	2.2	-4	0.66
CC(C)N=C(NS(=O)(=O)c1cccs1)c1ccccc1	-12	3.2	i	1	18	-1.9	2.3	-1	0.7
Nc1nc(C23CC4CC(CC(C4)C2)C3)[nH]c(=O)n1	-10	2.2	i	-9	-5	-1.1	2.9	13	0.58
O=[n+]1c2c(n([O-])c3cc(Cl)ccc31)CCCC2	17	8.8	·	·	·	·	0.9	-2	0.75
CCN(c1ccccc1)S(=O)(=O)c1cc(C(=O)NCc2ccco2)ccc1C	·	3.5	i	-4	-33	4.2	-4.2	13	0.71
O=C(NCc1ccc(F)cc1)c1cc(C2CCCCN2C(=O)OCCF)on1 (stereo not drawn)	·	·	i	-2	1	2.8	4.5	·	·
O=C(N/N=C/c1ccc[nH]1)c1ccc(COc2cccc3cccnc23)cc1	·	·	·	-1	9	11	-4.4	29	·
Cc1cccc(C)c1OCc1cc(C(=O)NC2CCC(O)CC2)no1 (stereo not drawn)	-7	3.5	i	11	11	4.0	-1.2	2	0.71
CC(O)CSc1nc2c(c(=O)[nH]c(=O)n2C)n1CC(O)COc1ccccc1 (stereo not drawn)	?	1.7	i	19	15	0.0	0.5	-5	0.67
Cc1ccc2[nH]c(C)c(/C=N/Nc3nc4ccccc4s3)c2c1	4	·	·	·	·	·	1.0	13	·
Cn1ccnc1C(=O)c1cc(SCC(=O)NC2CC2)nc2ccccc12	-8	3.8	i	3	2	0.5	4.4	1	0.71
CCNS(=O)(=O)c1ccc(CCC(=O)N2CCN(c3ccccc3F)CC2)cc1	-2	1.6	i	8	13	1.8	-0.1	-3	0.68
CN(C)CC(CCC(CN(C)C)C(O)(c1ccccc1)c1ccccc1)C(O)(c1ccccc1)c1ccccc1 (stereo not drawn)	·	2.1	i	22	-5	7.5	·	·	0.71
O=C1CC(c2cccs2)Sc2nc3ccccc3n21 (stereo not drawn)	-8	4.3	·	·	·	·	-11	2	0.68
OC1CCC(Nc2ccn3nc(-c4cccc(OCc5ccccc5)c4)cc3n2)CC1 (stereo not drawn)	·	·	·	-41	-65	31	4.0	·	·
COc1ccc(CN2Cc3cccc4c3[C@@H](CC2=O)[C@H](O)[C@H](O)C4)cc1	-5	1.3	i	2	5	-2.7	-1.4	-4	·
O=C(CSc1nc2[nH]ncc2c(=O)[nH]1)NCc1ccccc1	12	·	i	7	5	6.9	1.7	-2	·
COC(=O)c1nn(-c2ccccc2)c(=O)cc1Sc1ccc(Cl)cc1	-2	0.9	i	10	12	2.8	2.2	-5	0.69
C/C(=N\NC(=O)c1cccs1)c1ccc(C(=O)O)s1	-23	·	i	6	4	-1.6	-1.4	1	·
O=C(CCn1c(=O)[nH]c2ccccc2c1=O)NCCCN1CCN(c2cccc(Cl)c2)CC1	·	-3.3	·	·	·	·	1.0	-15	0.65
CNC(=S)N/N=C/c1c(C(=O)OC)cnn1-c1ccc(F)cc1F	·	·	i	-17	-18	-1.0	0.9	13	·
COC(=O)c1c[nH]n2c(=O)cc(C)nc12	4	2.5	i	-2	-12	-5.1	4.6	6	0.68
O=C(NS(=O)(=O)N1CCCC1)C1=C(N2CCCC2)COC1=O	1	1.8	i	3	-2	2.1	-2.3	-1	0.68
Brc1ccc(-n2c(SCc3nc4ccccc4[nH]3)nnc2-c2ccncc2)cc1	4	2.1	·	·	·	·	-1.1	-16	0.7

Another view of part of the listing above:
Nc1cc2c3ccccc3ccc2c2ccccc12
  ALR inh: ·
  UCH37 DUB inh: -192
  FGF22 binding: i
  rRNA inh HTS: -15
  rRNA inh HTS OD600: -17
  rRNA inh HTS RFP: -4.5
  HNF4A DNA FP: 14
  B2AR ag: 0
  Ecoli growth: 0.71
Cc1nc2ccc(NC(=S)NC(C)C)cc2nc1C
  ALR inh: 26
  UCH37 DUB inh: -2.4
  FGF22 binding: ·
  rRNA inh HTS: ·
  rRNA inh HTS OD600: ·
  rRNA inh HTS RFP: ·
  HNF4A DNA FP: -2.7
  B2AR ag: -5
  Ecoli growth: 0.65
O=C(CCN1CCOCC1)NNC(=O)Nc1cccc([N+](=O)[O-])c1
  ALR inh: 0
  UCH37 DUB inh: 8.0
  FGF22 binding: i
  rRNA inh HTS: 16
  rRNA inh HTS OD600: 13
  rRNA inh HTS RFP: 3.9
  HNF4A DNA FP: 3.2
  B2AR ag: 6
  Ecoli growth: 0.67
O=C(NCc1ccco1)c1ccc(CS(=O)(=O)Cc2ccc(Cl)cc2)o1
  ALR inh: -1
  UCH37 DUB inh: -0.6
  FGF22 binding: i
  rRNA inh HTS: -2
  rRNA inh HTS OD600: 0
  rRNA inh HTS RFP: -7.5
  HNF4A DNA FP: 1.2
  B2AR ag: -4
  Ecoli growth: 0.72

Other records follow:
SMILES	ALR inh	UCH37 DUB inh	FGF22 binding	rRNA inh HTS	rRNA inh HTS OD600	rRNA inh HTS RFP	HNF4A DNA FP	B2AR ag	Ecoli growth
O=C1CSC(=S)N1c1ccc(F)c(Cl)c1	-10	2.5	i	-54	-70	-4.4	0.5	6	0.59
O=C(NCCN1CCN(Cc2ccccc2)CC1)Nc1cc(Cl)cc(Cl)c1	6	5.8	i	-49*	-37*	-8.4*	4.9	16	0.61
COc1ccc(-c2cc3ccccc3oc2=O)cc1NC(=O)c1cccnc1	0	-27	·	·	·	·	1.4	-1	0.75
Cc1cc(-n2c(C)cc(C(=O)COc3ccccc3[N+](=O)[O-])c2C)no1	-9	-1.7	i	-12	-8	-4.5	0.1	-8	0.68
COc1ccc(NC(=O)N(C)C[C@H]2Oc3ccc(NC(=O)CCN4CCOCC4)cc3C(=O)N([C@@H](C)CO)C[C@H]2C)cc1	-11	-0.1	i	3&9	4&4	-0.7&0.0	-3.5	0	·
COC(CNC(=O)C1CCCCC1C(=O)O)OC (stereo not drawn)	·	2.7	·	·	·	·	9.1	-3	0.68
CCn1c(=O)c2cc(C(=O)N(C)c3ccc(OC)cc3OC)sc2c2ccccc21	-2	5.8	i	-30	-11	19	-3.0	27	0.68
CCOC(=O)c1ccc(NC(=O)c2nc[nH]c2C(=O)N[C@H](C)c2ccccc2)cc1	4	2.5	i	1	2	1.7	1.8	7	·
CCCCN(CC)S(=O)(=O)c1c(C)[nH]c(=O)[nH]c1=O	-3	4.6	·	18	12	-1.7	2.4	4	0.69
COc1ccc2cc(C(=O)C3CCCN(C(=O)Cc4c(C)noc4C)C3)ccc2c1 (stereo not drawn)	-49	i	i	-23	-34	5.9	-0.5	-9	0.54*
Cc1cccc(C)c1NC(=O)C(c1ccccc1)N1CCN(C)CC1 (stereo not drawn)	·	·	i	13	13	1.4	-1.4	·	·
CC(=O)Nc1nc(=O)c2ccccc2s1	13	1.1	i	2	4	-0.6	-2.0	0	0.71
COc1ccc(NC(=O)c2ccc(=O)[nH]c2)cc1S(=O)(=O)N1CCCCC1	-1	2.5	i	1	6	0.7	·	·	·
Cc1cc(=O)n(CC(C)C)c(O)c1C#N	·	2.4	·	·	·	·	3.2	-1	0.73
COc1ccc(C(=O)Nc2cccc(S(=O)(=O)N3CCCC3)c2)cc1S(=O)(=O)N1CCOCC1	-9	-1.7	i	-7	-4	1.8	-0.2	3	0.7
O=c1c2ccccc2ncn1CCCCOc1ccc(Br)cc1	-1	0.3	i	2	0	-2.2	0.9	-2	0.63
Fc1cccc(Cc2c(-c3cccc(Cl)c3)nc3c4ccccc4ccn23)c1	·	·	i	7	1	6.6	0.9	·	·
O=[N+]([O-])c1ncccc1Oc1nc(-c2cccnc2)nc2ccccc12	·	0.4	i	9	1	7.4	0.9	5	0.66
Cn1c(SCc2nn[nH]n2)nc2c1c(=O)n(Cc1ccccc1Cl)c(=O)n2C	-3	1.4	·	·	·	·	-6.5	-14	0.73

Assay outcomes deposited in PubChem BioAssay by several laboratories.
